# Vero = Vero cell cytotoxicity, dose response, cytotoxicity control for Vif-APOBEC3G degradation inhibitor project, Vero cells (AID 1117358); viability, % at the top dose, mostly 40 µM; hits show CC50 in µM; hit rate 7% among 2,300; Vero viability, CellTiter-Glo ATP luminescence, 72 h; reference of the scale not given here;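 active = viability down to 80% or less at some dose; inactive = above 80% at all doses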
# An asterisk follows results filed as active.
structure,Vero
Cc1nn(Cc2ccc(F)cc2)c(C)c1NC(=O)c1noc2c1CCc1ccccc1-2,95%
CCN1CCN(S(=O)(=O)c2cccs2)CC1,103%
CCOC(=O)c1ccc(NS(=O)(=O)c2ccc3c(c2)oc(=O)n3C)cc1,99%
CSc1ccc(C2C(C#N)=C(N)Oc3c2ccc(=O)c2c(C)oc(C)c32)cc1 (stereo not given),108%
CCN(CC)CCNC(=O)Cc1c(C(=O)O)n(C)c2ccccc12,99%
Cc1ccc2c(c1)N=C(c1ccc(Cl)cc1)CO2,112%
O=C(COc1ccc(F)cc1)Nc1ccc(-n2cnnn2)cc1,95%
O=C(NCc1ccco1)c1ccc2snnc2c1,107%
O=C(Nc1cccc(Cl)c1)C1=Cc2cc(Cl)ccc2OC1,>40µM*
CN(C)c1ccc(NC(=O)Cn2cc3c(n2)CCCC3)cc1,96%
O=C(CSc1nc(-c2ccco2)cc(C(F)(F)F)n1)N1CCc2ccccc2C1,96%
Cc1cc(C)cc(N(CC(=O)NCc2cccnc2)S(C)(=O)=O)c1,97%
CCOC(=O)C1CCN(C(=O)C2CCN(c3nc4ccc(OC)cc4s3)CC2)CC1,97%
Cc1ccc(C(=O)Nc2nc3ccccc3n2CCN2CCCC2)cc1,85%
O=C(NCc1cn2ccccc2n1)c1ccc2c(c1)OCO2,92%

# Some values from the results shown:
# In Vero, CCN(CC)CCNC(=O)Cc1c(C(=O)O)n(C)c2ccccc12 has 99%
# In Vero, O=C(NCc1ccco1)c1ccc2snnc2c1 has 107%
# In Vero, Cc1ccc2c(c1)N=C(c1ccc(Cl)cc1)CO2 has 112%

# By substructure: the entries above with a Cl atom (2)
structure,Vero
Cc1ccc2c(c1)N=C(c1ccc(Cl)cc1)CO2,112%
O=C(Nc1cccc(Cl)c1)C1=Cc2cc(Cl)ccc2OC1,>40µM*

# Arranged by SMILES length (low to high): some entries from above.
structure,Vero
Cc1cc(C)cc(N(CC(=O)NCc2cccnc2)S(C)(=O)=O)c1,97%
O=C(CSc1nc(-c2ccco2)cc(C(F)(F)F)n1)N1CCc2ccccc2C1,96%
CCOC(=O)C1CCN(C(=O)C2CCN(c3nc4ccc(OC)cc4s3)CC2)CC1,97%

# These rows are one share of the data. The share of hits here may be higher or lower than overall.
